Source: PubChem BioAssay (Johns Hopkins Ion Channel Center)
KCNQ2 enhance: potentiators of rat KCNQ2 potassium channel; Potassium voltage-gated channel subfamily KQT member 2 (Rattus norvegicus), O88943; AID 2239, 2010; B-score at 10 µM; CHO-K1 KCNQ2, FluxOR thallium flux fluorescence; stronger effect = higher value; 0.54% of 310,000 active;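 active = fluorescence ratio B-score at least 3 SD of library B-scores, with initial fluorescence B-score within 3 SD, cut at about 5.3 in these data; same plate scores as AID 2156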;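 also: B-score of peak minus minimum over baseline fluorescence ratio after K+ and Tl+ stimulus; positive B-score means potentiation of KCNQ2 with more thallium influx and brighter signal; only the inactives scoring about 0 or higher are listed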
Target sequence (O88943 whole entry, looked up): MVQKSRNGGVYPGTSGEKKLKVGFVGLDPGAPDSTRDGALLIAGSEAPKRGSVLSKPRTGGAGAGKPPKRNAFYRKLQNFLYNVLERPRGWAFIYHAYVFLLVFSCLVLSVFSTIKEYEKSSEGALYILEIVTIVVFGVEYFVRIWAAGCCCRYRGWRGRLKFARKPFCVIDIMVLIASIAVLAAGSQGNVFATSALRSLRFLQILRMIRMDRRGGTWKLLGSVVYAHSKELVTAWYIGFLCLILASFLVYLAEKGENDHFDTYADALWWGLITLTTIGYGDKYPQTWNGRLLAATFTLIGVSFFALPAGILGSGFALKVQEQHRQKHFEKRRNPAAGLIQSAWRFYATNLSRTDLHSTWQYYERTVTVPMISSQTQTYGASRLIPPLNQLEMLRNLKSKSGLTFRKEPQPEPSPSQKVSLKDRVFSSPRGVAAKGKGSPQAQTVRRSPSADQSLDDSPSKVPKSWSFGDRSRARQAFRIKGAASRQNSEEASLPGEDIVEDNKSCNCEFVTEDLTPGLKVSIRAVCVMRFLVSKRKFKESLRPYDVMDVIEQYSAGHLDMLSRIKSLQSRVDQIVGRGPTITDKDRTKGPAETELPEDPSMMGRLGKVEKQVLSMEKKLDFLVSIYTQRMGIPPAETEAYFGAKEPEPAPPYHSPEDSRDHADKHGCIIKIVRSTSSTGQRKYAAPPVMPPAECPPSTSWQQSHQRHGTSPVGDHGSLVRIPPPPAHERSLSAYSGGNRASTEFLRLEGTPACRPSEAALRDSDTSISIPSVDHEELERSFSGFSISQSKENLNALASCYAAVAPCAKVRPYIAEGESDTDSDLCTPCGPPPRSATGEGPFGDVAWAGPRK
KCNQ2 enhance baseline: recorded beside KCNQ2 enhance, whose call it bears; B-score; compound at 10 µM; measured here: initial fluorescence intensity artifact check;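 brightness before thallium and not channel activity; 0 = typical well and far values either way flag optical interference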
Active calls of the source: *; . = not tested or not shown. An excerpt, so the mix of outcomes need not match the whole.

SMILES	KCNQ2 enhance	KCNQ2 enhance baseline
CCOC(=O)C1=C(COC(=O)c2ccc(Cl)cc2[N+](=O)[O-])NC(=O)NC1C (stereo not given)	3.2	-0.37
CCOC(=O)C1=C(C)N=c2s/c(=C/c3ccc(OCC(=O)O)cc3)c(=O)n2C1c1ccc(OC)cc1OC (stereo not given)	0.12	0.89
O=C1c2cccc3cccc(c23)C(=O)N1c1ccccn1	0.74	1.6
Cc1cc(C)c(-c2cc(C)nc3ncnn23)c(C)c1	1.7	-0.42
Cc1ccc(-c2nn(-c3ccccc3)cc2CN(C)C(=O)CCC(=O)O)cc1C	1.3	0.47
CC(=O)c1c(C(C)=O)c(C)n(NC(=O)c2cccnc2)c1C	0.08	0.44
Cc1nnc(SCc2nc3sc4c(c3c(=O)[nH]2)CCCC4)[nH]c1=O	0.28	1.1
CC1(c2nnc(-c3ccccc3)o2)CC(c2ccc(F)cc2)=NO1 (stereo not given)	0.01	1.2
COc1cccc(COC(=O)C2CCN(C(=O)c3ccc(F)cc3)CC2)c1OC	0.79	0.94
CN(C)C(=O)c1ccc(NC(=O)COC(=O)CC23CC4CC(CC(Br)(C4)C2)C3)cc1	0.1	2.4
Cc1noc(C)c1S(=O)(=O)N1CCCC(C(=O)NC2CCCCC2)C1 (stereo not given)	2.6	0.71
CCCc1nnc(NC(=O)CCC(=O)N2CCN(c3ccccc3)CC2)s1	0.08	1
COCCNC(=O)Cn1cnc2ccc(S(=O)(=O)N3CCC(C)CC3)cc2c1=O	0.66	0.67
C=CCC(NCc1ccccc1)c1ccc(C)o1 (stereo not given)	2.6	-2.1
Cc1c(C(=O)NC(=S)Nc2ccc3c4c(cccc24)CC3)cccc1[N+](=O)[O-]	0.42	-1.8
CCOC(CNC(=O)CN1C(=O)COc2ccc(S(=O)(=O)N3CC(C)CC(C)C3)cc21)OCC (stereo not given)	0.57	0.01
O=C(NCc1ccco1)C1OCCc2ccccc21 (stereo not given)	0.04	-0.6
Cc1cccc(CSCc2ccc(C(=O)O)o2)c1	0.89	-0.69
Cc1ccc(NC(=O)c2ccc(Nc3ccccc3F)nc2)cc1	1.8	-0.76
Cc1cccc(NC(=O)N2CCC(NC(=O)C3CCCCC3)CC2)c1	1.3	0.36
COc1ccc(/C=N/NS(=O)(=O)c2ccccc2)cc1OC(=O)c1ccc(C)cc1	0.79	-1.1
CC(=O)Nc1ccc(NC(=O)C(C)OC(=O)C2(c3ccc(Cl)cc3)CCCC2)cc1 (stereo not given)	0.89	1.7
CN(C)S(=O)(=O)c1cccc(NC(=S)Nc2cc(Cl)cc(Cl)c2)c1	1	-1.2
O=[N+]([O-])c1cccc(/C=N/Nc2nc(NCc3ccccc3)nc(N3CCOCC3)n2)c1O	0.33	-0.15
Cc1cc(=O)cc(C)n1-c1ccc(Cl)cc1	0.75	-1.2
COc1ccccc1NC(=O)CCN1C(=O)c2ccccc2S1(=O)=O	1.3	0.07
CCOc1ccc(N(Cc2cc3cc(C)ccc3[nH]c2=O)C(=O)COC)cc1	1.4	-0.23
CC(=O)c1ccc(NC(=O)Nc2ncn(Cc3cccc(C)c3)n2)cc1	0.44	0.11
COc1cccc(-c2nc(CS(=O)(=O)CC(=O)Nc3ccccc3C)c(C)o2)c1	0.01	0.68
O=C(CCCN1CC=C(n2c(=O)[nH]c3ccccc32)CC1)c1ccc(F)cc1	0.27	-0.86
O=C(C1CCCN(Cc2ccccc2[N+](=O)[O-])C1)N1CCCCC1 (stereo not given)	1.3	0.05
Cc1ccc(SCc2cc(=O)[nH]c(N3CCCCC3)n2)cc1	0.67	-0.63
O=C(Nc1ccccc1)c1ccc2c(c1)CCN2S(=O)(=O)c1ccccc1	0.75	-0.02
CCc1ccc(/C=C2/SC(=S)N(CCC(=O)Nc3cccc(C(=O)O)c3)C2=O)cc1	1.5	-0.01
Cc1nc(Cl)c(C#N)cc1-c1ccccc1	1.4	1.5
O=c1ccnc2n1COCS2	0.67	0.67

4 of these compounds in another layout:
> Cc1ccc(SCc2cc(=O)[nH]c(N3CCCCC3)n2)cc1
  KCNQ2 enhance: 0.67	KCNQ2 enhance baseline: -0.63

> O=C(Nc1ccccc1)c1ccc2c(c1)CCN2S(=O)(=O)c1ccccc1
  KCNQ2 enhance: 0.75	KCNQ2 enhance baseline: -0.02

> CCc1ccc(/C=C2/SC(=S)N(CCC(=O)Nc3cccc(C(=O)O)c3)C2=O)cc1
  KCNQ2 enhance: 1.5	KCNQ2 enhance baseline: -0.01

> Cc1nc(Cl)c(C#N)cc1-c1ccccc1
  KCNQ2 enhance: 1.4	KCNQ2 enhance baseline: 1.5

Following part:
SMILES	KCNQ2 enhance	KCNQ2 enhance baseline
O=C(CN(C(=O)CNC(=O)c1cccs1)c1ccccc1)NC1CCCCC1	0.67	2.8
O=C(NC1CCCCC1)C1CC=CCC1C(=O)OCC(Cl)=C(Cl)Cl (stereo not given)	-5.5	.
COc1cc(C(C)=O)ccc1OC(=O)c1cc2cccc(OC)c2oc1=O	1	-0.32
FC(F)(F)c1cc(-c2ccccc2)nc(N2CCCCC2)n1	0.92	-0.24
O=C1COc2ccc(C(=O)COC(=O)CCc3ccc(S(=O)(=O)N4CCOCC4)cc3)cc2N1	1.9	0.39
CC(=O)OCC1OC(OCc2cn(C[C@H]3CC[C@H](Cn4cc(COC5OC(COC(C)=O)C(OC(C)=O)C(OC(C)=O)C5OC(C)=O)nn4)O3)nn2)C(OC(C)=O)C(OC(C)=O)C1OC(C)=O (stereo not given in full)	0.36	0.11
COCCn1c(-c2ccccc2)cnc1N	0.65	-1.1
CCOn1c(=O)c(=O)n(O)c2ccccc21	1.5	-0.95
CC(=O)Nc1ccccc1NC(=O)C/C(C)=N/NC(=O)Cc1cccc2ccccc12	0.34	0.14
O=C(O)c1cc2nccc(-c3ccco3)n2n1	0.03	-1.4
Cc1ncn(C23CC4CC(CC(C4)C2)C3)n1	0.04	1.6
CC1=[N+]([O-])C(C)(C)N(O)C1(C)C	1.5	-0.42

3 structures from above, ordered by formula weight, descending.
SMILES	KCNQ2 enhance	KCNQ2 enhance baseline
CC(=O)Nc1ccc(NC(=O)C(C)OC(=O)C2(c3ccc(Cl)cc3)CCCC2)cc1 (stereo not given)	0.89	1.7
COc1cc(C(C)=O)ccc1OC(=O)c1cc2cccc(OC)c2oc1=O	1	-0.32
Cc1cccc(NC(=O)N2CCC(NC(=O)C3CCCCC3)CC2)c1	1.3	0.36

Next section:
SMILES	KCNQ2 enhance	KCNQ2 enhance baseline
Cc1cc(C)c(C(=O)N2CCC(N3CCC(C(=O)NC(C)C)CC3)CC2)o1	0.07	-1.5
O=C(N/N=C/c1ccccc1OCc1ccccc1)c1cccnc1	1.3	-1.5
Cc1nc(NCc2ccc3c(c2)OCO3)c2nnn(Cc3ccccc3)c2n1	2.5	0.39
COc1ccc(-n2c(COc3cccc4ccccc34)nnc2SCC(=O)NCc2ccco2)cc1	1.6	0.63
O=C(CSc1nnnn1-c1ccccc1)Nc1ncc2c(n1)CC(c1ccco1)CC2=O (stereo not given)	0.49	-2.6
CN1C(=O)C(O)(CC(=O)/C=C/c2ccco2)c2ccccc21 (stereo not given)	0.59	0.23
C=CCN1C(=O)C(Cc2ccc(OC)cc2)S/C1=N\N=C\c1cccs1 (stereo not given)	0.02	0
Cc1ccccc1S(=O)(=O)Cc1ccc(C(=O)O)o1	0.64	0.01
CS(=O)(=O)n1nc(-c2ccc(Cl)cc2)nc1N	0.1	0.1
c1ccc(Oc2nc(NCc3ccco3)nc(NCc3ccco3)n2)cc1	0.48	-0.88
O=C(CN1CCN(Cc2ccccc2)CC1)NNC(=O)c1ccc(Cl)cc1	0.58	0
O=C(NNC(=O)c1ccccc1F)c1ccc(-n2cncn2)c([N+](=O)[O-])c1	0.02	-0.75
Cc1cccc(CCN=C(N)NS(=O)(=O)c2ccccc2)c1	0.95	0.45
CCC(C)N(CC(=O)Nc1cccc(C)c1C)C(=O)CCl (stereo not given)	0.35	-0.01
CCn1c(CNC(=O)c2ccco2)nnc1SCC(=O)Nc1cc(C(F)(F)F)ccc1Cl	0.02	0
Cc1ccccc1NC(=O)c1cccc(NC(=O)c2c(C(=O)O)cccc2[N+](=O)[O-])c1	0.67	0.1
COc1ccccc1C(=O)N/C(=C/c1ccco1)C(=O)Nc1cccc(C(=O)O)c1	0.73	-0.19
Cc1cccc(C)c1NC(=O)CN(C)C(=O)c1ccc(N2C(=O)CCC2=O)cc1	1.6	-3.7
C/C(=N\NC(=O)c1cccc(Cl)c1)C1C(=O)c2ccccc2C1=O	2.5	0.3
O=C(Nc1ncccn1)C1CCCN1S(=O)(=O)c1ccc(Cl)c(Cl)c1 (stereo not given)	0.18	1.1
CCOC(=O)c1cc(NC(=O)OC)c(C)nc1C	0.63	2.2
CC(C)(C)OC(=O)N[C@@H](Cc1ccccc1)C(=O)N1CCC(C(=O)O)CC1	0.08	1.8
Cc1ccc(Oc2ccc(OCC(=O)OC3CCS(=O)(=O)C3)cc2)cc1 (stereo not given)	1.1	-0.32
CC(Sc1ccc(Cl)cc1)C(=O)Nc1ccc(S(=O)(=O)N2CCOCC2)cc1 (stereo not given)	1.3	-0.06
CCOC(=O)N1CCN(C(=O)CN2C(=O)COc3ccc(S(=O)(=O)N4CCOCC4)cc32)CC1	1.9	-0.65
Cc1scc(C(=O)N2CCN(S(C)(=O)=O)CC2)c1-c1ccccc1	0.3	-0.63
COC(=O)c1sc(N2CCCCC2)c(C#N)c1N	1.6	-1.7
O=C(O)CSc1c2c(nc3cc(C(=O)NCCN4CCOCC4)ccc13)CCC2	0.13	0.54
CN(C(=O)C1CCCO1)C1CCS(=O)(=O)C1 (stereo not given)	0.82	0.23
COC(=O)C1CN(C(=O)c2cccc(OC(F)F)c2)c2ccccc2O1 (stereo not given)	0.45	0.01
CCCCCCS(=O)[C@H]1CS(=O)(=O)C[C@@H]1S(=O)CCCCCC (stereo not given in full)	0.89	-1.2
NS(=O)(=O)c1ccc(F)c(C(=O)O)c1	0.05	-1.7
COc1ccc(CCNC(=O)CCn2c(=O)c3cccn3c3ccc(F)cc32)c(OC)c1OC	0.03	-0.01
C1CCC(Nc2nnnn2C2CCCCC2)CC1	1.3	-0.04
COc1ccc(N(CC(=O)NCc2ccco2)S(C)(=O)=O)cc1Cl	0.28	0.95
CCCC(C)C(=O)Nc1ccc(S(=O)(=O)N2CCCC2)cc1 (stereo not given)	0.64	1.1

Given bar-delimited: entries from further up.
canonical_smiles | KCNQ2 enhance | KCNQ2 enhance baseline
O=C(O)CSc1c2c(nc3cc(C(=O)NCCN4CCOCC4)ccc13)CCC2 | 0.13 | 0.54
CCCCCCS(=O)[C@H]1CS(=O)(=O)C[C@@H]1S(=O)CCCCCC (stereo not given in full) | 0.89 | -1.2
CCOC(=O)N1CCN(C(=O)CN2C(=O)COc3ccc(S(=O)(=O)N4CCOCC4)cc32)CC1 | 1.9 | -0.65

Next results follow.
SMILES	KCNQ2 enhance	KCNQ2 enhance baseline
O=C(c1ccccc1)N1CCN(S(=O)(=O)N2CCCCC2)CC1	1.2	-1.4
CCOC(=O)N1CCC(Nc2c([N+](=O)[O-])cc(C(=O)O)cc2[N+](=O)[O-])CC1	0.04	-0.7
Nn1c(SCC(=O)Nc2ccccc2Br)nnc1-c1ccco1	1.1	-0.8
CCCNc1c(NS(=O)(=O)c2cccc(C#N)c2)c(=O)oc2ccccc12	0.08	-0.55
Cc1ccc(-c2nc(CS(=O)CC(=O)NCc3ccccc3)c(C)o2)cc1 (stereo not given)	0.62	-0.07
CCOC(=O)[C@@H]1[C@H]2COc3ccccc3[C@H]2N2C(=O)N(c3ccc(OC)cc3)C(=O)[C@]12C	0.06	-0.28
CC(=O)n1cc([C@@H]2C=C(C(=O)N3CCN(Cc4ccccc4)CC3)O[C@H](OCc3ccc(CO)cc3)C2)c2ccccc21	0.06	-1.1
O=C(NCc1nnnn1-c1cccc(F)c1)c1ccc(S(=O)(=O)N2CCOCC2)cc1	1.1	0.15
Cc1ccc(O)c(-c2cc(C(=O)Nc3ccc(S(=O)(=O)Nc4nc(C)cc(C)n4)cc3)[nH]n2)c1	0.61	-1.5
O=C(CCNC(=O)c1ccc(Br)o1)NC1CCCC1	0.39	2
CCCn1cc(SCC(N)=O)c2ccccc21	0.04	-0.92
O=C(c1cc(S(=O)(=O)N2CCOCC2)ccc1F)N1CCCc2ccccc21	0.58	0.5
CCOC(=O)C1CCCN(C(=S)Nc2ccc(C)cc2C)C1 (stereo not given)	0.46	0.78
Nc1cc(N)nc(SCc2nnnn2-c2ccc(Cl)cc2)n1	0.85	-1.7
C[N+]1(C2CCC3CCCC2C3O)CCCC1 (stereo not given)	0.12	3.7
CC(=O)Nc1ccc(NC(=O)COc2ccc(S(=O)(=O)N3CCCC3)cc2)cc1	1.3	-0.03
COc1ccc(/C=C2/S/C(=N/N=C3\CC4CCC3(C)C4(C)C)NC2=O)cc1 (stereo not given)	18*	4.4*
CCc1ccc(OCC(=O)NC(=S)Nc2ccc(S(=O)(=O)NC3CCCCC3)cc2)cc1	0.01	0.45
CCOC(=O)c1c(NC(=O)c2c(C(=O)O)cccc2[N+](=O)[O-])sc2c1CCCC2	0.39	0.46
CC(=O)Oc1ccc(-c2cccc(C(=O)O)c2)cc1	2.4	-1.5
COC(=O)Cc1cc(=O)[nH]c(/N=C(\N)Nc2ccccc2)n1	0.74	0.73
CN(Cc1cccs1)C(=O)Cn1cnc2ccccc2c1=O	0.05	0.69
CCc1cccc(C)c1NC(=O)COC(=O)Cc1ccsc1	0.83	1
O=C1CCN(Cc2ccccc2)CCN1CCSc1ccccc1	0.41	-0.97
CCN1CCc2nc(NC(=O)c3ccc(S(=O)(=O)N(C)C)cc3)sc2C1	0.45	3
CCC(Sc1ccc2nnc(-c3cccnc3)n2n1)C(=O)O (stereo not given)	0.69	1.8
COc1ccc(NS(=O)(=O)c2ccc3c(c2)OCCO3)cc1OC	2.3	0.5
